CtBP-E1A inh = blocks the CtBP interaction with E1A | activity change, % (test concentration not listed) | AlphaScreen GST-E1A/His-CtBP binding, 1536-well; hits give low values; control for the full effect not named in the record | actives 0.49% (n = 340,000); in the data active means activity change below about -65%; inconclusive means about -30% to -65%; inactive means above about -30%; also: % is scaled to controls: 0 for no effect and ±100 for the full control effect; compound concentration not given in the record
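Protein mix (5X: 125 nM each GST-E1A, His-CtBP) was incubated with pinned compound 2 h at 37 deg C in dark, in 50 mM Tris pH 8.0 buffer with 300 mM NaCl. Glutathione donor and nickel acceptor beads followed; AlphaScreen signal read after 1 h.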
TRPML1 ag = agonists of human TRPML1 channel; actives 0.12% (n = 410,000); TRPML1-expressing cells, Ca2+ dye fluorescence, FDSS; host cell line not named in the record; reference of the full effect not given here; AID 624414; Q9GZU1; activation, % (no concentration beside the values); in the data active = activation above about 50%; inconclusive = about 30% to 50%; inactive = below about 30%; also: 0% is about no effect; the text of the record puts the active cut at 80%
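Cells: TRPML1-DL, 1X Tet inducer, ~16 h at 37 degrees C/5% CO2. Dye: ABD Ca8 no-wash + quencher, 45-90 min RT. Read: 10 s baseline, compound add, 110 s agonist phase; 54-4 EC80 (4uM final), 110 s antagonist phase.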
D2 PAM = potentiates the human D2 dopamine receptor allosterically. P14416. DiscoveRx D2 beta-arrestin cells, luminescence, 90 min; 100% = 57 uM dopamine signal. potentiation, % (concentration not given with the values). actives 0.23% (n = 360,000). AID 624464; active = potentiation of 50% or more; inconclusive = 30% to 50%; inactive = 30% or less;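 also: compound concentration not given in the record; tested on top of an EC20 dose of dopamine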
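D2 cells co-treated with compound plus 50 nM dopamine (EC20) for 90 min at 37 deg C to detect potentiation. Beta-arrestin recruitment was read as enzyme-fragment luminescence after 1 h at ambient temperature. Full response was set by 57 uM dopamine.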
D2 ag = agonists of human D2 dopamine receptor (beta-arrestin) | actives 0.084% (n = 360,000) | activation, % (test concentration not listed) | P14416 | DiscoveRx PathHunter D2 beta-arrestin, luminescence, 90 min; 100% = 57 uM dopamine signal; in the data active = activation above about 40%; inconclusive = about 15% to 40%; inactive = below about 15%; also: compound concentration not given in the record; the text of the record calls up to 30% inactive
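Agonist mode: compounds alone added to overnight-plated D2 PathHunter cells for 90 min at 37 C, with 57 uM final dopamine (EC100) defining full response. Beta-arrestin recruitment detected by chemiluminescent reagent, read after 1 h at ambient temperature.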
Six1-Eya2 inh = Six1/Eya2 interaction inhibition | AlphaScreen GST-Six1/His-Eya2 binding, biochemical; hits give low values; control for the full effect not named in the record | activity change, % (test concentration not listed) | actives 0.56% (n = 360,000); in the data active = activity change below about -65%; inconclusive = about -30% to -65%; inactive = above about -30%; also: % is scaled to controls: 0 for no effect and ±100 for the full control effect; compound concentration not given in the record
Target sequence (O00167 whole entry, looked up): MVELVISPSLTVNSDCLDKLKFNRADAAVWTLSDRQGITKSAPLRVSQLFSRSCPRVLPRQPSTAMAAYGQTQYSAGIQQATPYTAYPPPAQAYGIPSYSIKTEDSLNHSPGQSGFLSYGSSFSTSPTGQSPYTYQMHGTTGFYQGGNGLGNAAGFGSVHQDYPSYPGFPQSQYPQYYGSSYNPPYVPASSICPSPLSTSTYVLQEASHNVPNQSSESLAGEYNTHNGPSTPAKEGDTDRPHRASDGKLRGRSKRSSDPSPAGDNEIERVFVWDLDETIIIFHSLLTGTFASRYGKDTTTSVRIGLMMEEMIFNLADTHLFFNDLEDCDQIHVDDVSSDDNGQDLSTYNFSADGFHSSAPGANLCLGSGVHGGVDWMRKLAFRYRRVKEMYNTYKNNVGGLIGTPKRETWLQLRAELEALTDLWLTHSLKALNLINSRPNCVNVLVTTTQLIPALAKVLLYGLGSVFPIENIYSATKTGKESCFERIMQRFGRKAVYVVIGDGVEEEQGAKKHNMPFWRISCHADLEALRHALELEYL
Target sequence (Q15475 whole entry, looked up): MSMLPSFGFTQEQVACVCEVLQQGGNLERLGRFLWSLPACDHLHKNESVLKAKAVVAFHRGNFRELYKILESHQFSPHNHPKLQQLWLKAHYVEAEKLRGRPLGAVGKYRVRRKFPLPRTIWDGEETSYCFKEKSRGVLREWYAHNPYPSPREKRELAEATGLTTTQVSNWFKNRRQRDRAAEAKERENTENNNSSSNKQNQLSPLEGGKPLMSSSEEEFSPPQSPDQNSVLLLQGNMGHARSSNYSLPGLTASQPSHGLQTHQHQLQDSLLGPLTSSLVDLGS
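GST-Six1 + His-Eya2 (5X stock: 250/500 nM); Tris pH 8.0, 300 mM NaCl, 0.05% BSA, 0.02% Tween 20; GSH donor/Ni acceptor beads; 1 h 37 °C dark; AlphaScreen readout.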
PINK1 modulator = changes PINK1 expression | PINK1 immunofluorescence, high-content cytometry, 24 h | AID 624263 | actives 0.2% (n = 410,000) | Potency, µM (titrated, usually from 76.6 µM), for inactives: at the highest dose activation (PINK1 increase), hits mostly activators; active = well fitted activation curve with a large enough effect; inconclusive = small, poorly fitted or top-dose-only effect; inactive = flat fitted curve, though single readings scatter; cell line not stated here;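 also: potency is read from the fitted curve at half-maximal effect; % of control where 0% means no effect; nearly all actives have a fitted effect of over 65% in size; a mitochondrial uncoupler was the plate control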
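Measures PINK1 amount and localization on or inside mitochondria by immunofluorescence. Stable cells get compounds at 5 concentrations for 24 hours before fixation and staining; CCCP controls included.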
The depositor's hits bear a star; ? = inconclusive; . = no result given; [ ] = remark or other dose. Hits appear at their usual frequency. Share with any hit: about 1.3%.

The line under a structure holds: CtBP-E1A inh, TRPML1 ag, D2 PAM, D2 ag, Six1-Eya2 inh, PINK1 modulator
COc1cc(/C=N/NC(=O)C(C)Nc2n[nH]c(=O)[nH]c2=O)ccc1O (stereo not drawn)
→ 1.2, -0.4, -4.1, -3.6, 0.9, -1.1%
CCOC(=O)C1=C(c2ccccc2)NC(=O)NC1c1cc(OC)c(OC)cc1OC (stereo not drawn)
→ -7.1, -0.5, -2.2, 0.1, 0.3, 0.4%
CCCN(CC(=O)Nc1ccccc1C)C(=O)c1ccc(Cl)c(S(=O)(=O)N2CCCC2)c1
→ -1.5, 2.2, -6.2, -2.5, -2.5, -2.5%
CN(C)c1[nH]c(=O)c(C#N)c2c1CCN2Cc1ccccc1
→ -8.5, -0.4, -3.8, -0.1, -11.5, 2.3%
Cc1cc(C(=O)CN2C(=O)C(=O)N(C3CCCC3)C2=O)c(C)n1-c1ccc(F)cc1
→ 4.6, 1.6, -2.2, 2.1, -6.9, 3.5%
CCN(CC)C(=O)N1CCC(NC(=O)Cc2ccccc2)CC1
→ -2.6, -0.1, -11.2, -1.8, 5.2, -0.8%
Cc1cc(C)cc(N2CC34C=CC(O3)C(C(=O)OCC(=O)NCc3ccco3)C4C2=O)c1 (stereo not drawn)
→ 3.6, 0.2, -5.8, -0.3, -7.5, -3.3%
COc1ccc(C2c3c(oc4ccccc4c3=O)C(=O)N2CCCN2CCOCC2)cc1 (stereo not drawn)
→ -0.4, 0.3, -15.3, -0.7, 0.0, .
CCOC(=O)CNC(=S)SC
→ 8.1, 0.3, -6.7, 3.7, 3.5, -1.3%
CCOC(=O)C1=C(C)N(c2ccc(C)cc2)C(=O)/C1=C\c1ccc(O)c(OC)c1
→ -8.6, 1.1, -11.6, -6.1, -16.5, 2.2%
CC(C)(C)NC(=O)COC(=O)c1ccc(Cl)nc1
→ 12.9, 0.5, -1.8, 3.5, 3.9, -1.5%
O=C(Nc1cc2c3c(c1)CC(=O)N3CCC2)c1cccc(F)c1
→ -1.7, 0.3, -33.2, -4.7, -13.1, 3.0%
Cc1ccc(OCCC(=O)NCCc2ccc(S(N)(=O)=O)cc2)cc1
→ 13.2, 1.0, 19.8, -1.7, 4.6, 0.4%
COC(=O)C(C)Oc1ccc(=O)[nH]n1 (stereo not drawn)
→ 0.6, -0.8, 7.5, -1.5, 12.0, 0.9%
Cc1ccc(C(=O)Nc2nnc(COc3ccccc3)s2)cc1
→ -16.9, -0.2, -2.5, -4.8, -0.1, 1.2%
O=C(c1cccnc1)N1C2C=CC(C2)C1(C(F)(F)F)C(F)(F)F (stereo not drawn)
→ 1.8, 0.2, -23.4, -4.0, -6.7, -2.4%
Cc1ccc2c(c1)C(=C(C#N)C#N)C(=O)N2CCN1CCCCC1
→ -2.4, 0.1, -16.0, -10.8, -5.6, -0.8%
CC(=O)Oc1ccc(C(C)=O)c2c1OCCO2
→ -0.7, -0.2, -9.4, -2.4, -1.3, .
CCN(CC)C(=S)SCC(=O)Nc1nc(-c2ccccc2)c(-c2ccccc2)o1
→ -10.4, 1.1, -13.6, -5.8, 8.5, 1.5%
O=C(O)c1cccc(Nc2nc3ccccc3nc2NS(=O)(=O)c2cccs2)c1
→ ., -0.6, -2.2, -1.3, -4.3, 0.8%
COC(=O)c1sccc1S(=O)(=O)NC(C)c1cnn(-c2ccc(OC)cc2)c1C (stereo not drawn)
→ 21.9, 0.2, -6.4, -7.8, -2.2, 3.3%
S=C(NCCc1ccccn1)NC1CCCCC1
→ -8.3, -0.9, -17.6, -0.6, -2.8, -0.8%
Cc1ccccc1CC1SC(N)=NC1=O (stereo not drawn)
→ -2.0, -0.3, -4.4, 1.7, -10.2, 1.3%
CC(C)N1C(=O)/C(=C\c2nc3ccccc3c(=O)n2-c2ccccc2)c2ccccc21
→ 24.1, 5.1, -5.9, 1.6, ?, -3.5%
COc1cc(NC(=O)COc2ccccc2[N+](=O)[O-])ccc1NC(=O)c1ccco1
→ 1.3, -0.2, 1.6, 0.2, -11.8, 11.1%
CCC(=O)Nc1sc2c(c1C#N)CC(C)(C)NC2(C)C
→ 6.7, -0.4, 8.2, 0.0, 4.4, -0.6%
Cc1cc(=O)n2nc(N3CCC(C(=O)NCCc4ccc(Cl)cc4)CC3)sc2n1
→ -13.1, -1.2, -3.4, 0.5, -11.4, 0.6%
Cc1ccc(NC(=O)CC(O)(C(F)(F)F)C(F)(F)F)cc1
→ 2.7, 1.1, 9.9, 2.3, 3.1, 8.8%
NC(=O)c1ccc(N2CCOCC2)nc1
→ -3.2, 2.4, -0.8, -0.1, 7.2, -1.9%
COC(=O)c1ccccc1NC(=O)COC(=O)CSCC(=O)N1CCOCC1
→ -0.6, 0.7, -6.9, -1.3, 2.9, -0.5%
Cc1ccc(NC(=O)C2CC(=O)NC(Nc3cccc(C)c3)=N2)cc1 (stereo not drawn)
→ 7.1, -0.4, 13.3, -1.5, 12.1, -1.3%
Cc1ccc(-c2cc(C#N)c(=O)n(Cc3c(Cl)cccc3Cl)c2)cc1
→ -5.1, 0.7, -5.6, 1.0, 2.8, ?
COc1ccccc1N1CCN(C(CNC(=O)C2CCCCC2)c2cccnc2)CC1 (stereo not drawn)
→ 6.6, -0.3, -12.5, -6.1, 14.7, 0.8%
Cc1c(=O)n(OCc2ccc(Cl)cc2)c2ccccc2[n+]1[O-]
→ ., -0.6, -2.9, 9.4, -0.4, 0.5%
O=C(N/N=C/c1ccncc1)/C(=C/c1ccccc1)NC(=O)c1ccccc1
→ 0.3, -0.1, -2.5, -1.7, -0.7, 39.5%[38.3 µM]
COc1cccc(CN(C)C(=O)c2[nH]c(C)c(C(C)=O)c2C)c1OC
→ 0.1, -0.2, -4.6, -6.0, -3.0, 4.2%
CC(=O)C1CCC2C(CCC3=CC(=O)CCC32)C1 (stereo not drawn)
→ 2.1, -0.2, -4.6, 1.7, 5.1, -0.1%
O=S1(=O)CC(N2CCCCC2)C(N2CCCCC2)C1 (stereo not drawn)
→ 4.7, 0.2, -2.5, -0.6, 3.4, 2.2%
CC(C)Cc1nnc(NC(=O)c2cc(-c3ccccc3)nc3ccccc23)s1
→ -5.4, -1.0, -4.9, -2.3, 1.5, -0.9%
COc1ccc(C2c3[nH]c4ccccc4c3C[C@H]3C(=O)N(CC(C)C)CC(=O)N23)c(OC)c1 (stereo partly drawn)
→ -5.2, 0.0, -8.1, -1.6, -12.6, 5.0%
NS(=O)(=O)c1ccc(CCNC(=O)CSc2nc3ccsc3c(=O)n2CC2CCC(C(=O)O)CC2)cc1 (stereo not drawn)
→ ., 0.1, 13.2, -5.1, 0.2, 1.9%
CC(=O)Nc1ccc(C)c([N+](=O)[O-])c1
→ 3.2, 0.5, -8.2, 2.8, -4.4, -2.1%
O=C(CCn1cnc2ccccc21)N=Nc1c(O)[nH]c2ccccc12
→ -11.4, 0.9, 2.2, -1.0, 0.2, 0.4%
Cc1n[nH]c(=O)c2c(NC(=O)CSc3nc4ccccc4c(=O)n3C(C)C)oc(C)c12
→ -8.0, 1.6, -2.0, -2.6, -8.8, 4.3%
Cc1noc(/C=C/N(C)C)c1S(=O)(=O)N1CCCC(C(=O)Nc2ccccc2F)C1 (stereo not drawn)
→ 1.2, 1.3, -9.6, -1.0, 4.1, 0.6%
CCC/C=N/NC(=O)c1cccc(Br)c1
→ 1.5, 1.2, -1.6, 0.7, 2.6, -1.3%
O=C(CCc1nnc(CCC2CCCCC2)o1)NCCc1cccnc1
→ ., -0.4, 1.2, 1.4, -1.1, 1.5%
CCCN1Cc2cccc(C(=O)NCc3ccc(C)cc3)c2C1=O
→ 12.7, 2.9, 0.8, -1.3, 0.5, -2.0%
CCOC(=O)c1sc(NC(=S)NC(=O)C23CC4CC(CC(C4)C2)C3)cc1C
→ 8.6, -0.5, -5.4, 5.6, 10.1, 8.6%
CCCC(c1nnnn1C(C)(C)CC)N(CCCO)Cc1cc2cc(C)cc(C)c2[nH]c1=O (stereo not drawn)
→ 5.1, 0.6, -2.7, -2.2, 0.5, -1.4%
CC1CCc2sc(C(=O)NC3CCCCC3)cc2C1 (stereo not drawn)
→ 10.7, 0.0, -12.1, -4.9, 2.4, 4.1%
O=C(NCCc1ccccc1)C(=S)N1CCCCC1
→ -0.4, -0.4, -2.2, 0.1, 6.3, 1.1%
CCS(=O)(=O)CCSC(=N)N
→ 4.4, -0.1, 5.8, -1.5, 2.0, 0.2%[38.3 µM]
Cc1cc(OCC(=O)NCCO)cc(C)c1Cl
→ 8.1, 0.0, -15.3, -1.4, 5.2, 1.9%
Cc1ccc(C(=O)C(C)OC(=O)Cn2[nH]c(=O)c3ccccc3c2=O)cc1C (stereo not drawn)
→ -18.0, 3.2, -18.7, -1.4, -4.6, 0.4%
COc1cccc(C2CC(c3ccccc3Cl)n3nnnc3N2)c1 (stereo not drawn)
→ 0.3, -0.5, 9.2, -1.4, -3.4, 0.9%
Cc1ccc(/C=N/NC(=O)c2ccco2)s1
→ 10.7, -0.7, 1.6, 1.9, -0.6, 2.0%
Cc1ccc(S(=O)(=O)N2CCCCC2C)cc1[N+](=O)[O-] (stereo not drawn)
→ 2.2, -0.6, 3.3, 6.6, 3.0, 0.1%
CC(=O)NC(Cc1cccc(F)c1)C(=O)NC1CCN(C(=O)Nc2ccc(C)cc2)CC1 (stereo not drawn)
→ 4.2, 0.1, 3.2, -0.8, 2.6, 0.4%
Cn1c(=O)c2cc(S(=O)(=O)NC(Cc3ccccc3)C(=O)NCc3ccco3)ccc2n(C)c1=O (stereo not drawn)
→ 1.1, -0.7, -3.7, 1.6, -1.5, 1.0%

(further entries)
The line under a structure holds: CtBP-E1A inh, TRPML1 ag, D2 PAM, D2 ag, Six1-Eya2 inh, PINK1 modulator
Cc1ccc(CNC(=O)c2ccc(N3CCC4(CC3)CC(c3cccc(Br)c3)=NO4)c(NC(=O)c3c(Cl)cccc3Cl)c2)cc1
→ 1.6, 0.0, -12.3, -3.6, 1.6, 1.0%
CCC(=O)Nc1ccc(C(=O)CSc2nnc(-c3ccc(NS(=O)(=O)CC)cc3)o2)cc1OC
→ 4.1, 0.8, -2.0, -1.1, -5.1, -1.4%
CCNC(=O)C1(C)CCCCN1Cc1ccc(C#N)cc1 (stereo not drawn)
→ -7.6, -0.3, -3.7, 3.4, 10.2, -0.2%
O=C(CC1SC(N2CCCC2)=NC1=O)Nc1ccc(C(=O)NCCc2ccc(F)cc2)cc1 (stereo not drawn)
→ 10.7, 2.3, -21.5, -5.0, -7.5, -0.7%
Cc1nc(-c2noc(-c3ccc(Cl)cc3)n2)c(C(F)(F)F)o1
→ 10.9, -0.3, -5.9, -2.8, 7.9, 0.8%
O=C(NCc1nc2ccccc2[nH]1)c1cc2ccccc2oc1=O
→ 31.3, -1.2, -24.3, -5.2, 15.1, -1.9%
COc1ccc(CNS(=O)(=O)c2ccc3c(c2)CC(C)N3C(=O)C2CC2)cc1 (stereo not drawn)
→ 3.8, 3.5, -2.0, 7.4, 0.0, 0.8%
Fc1ccc(N2CCN(Cc3cnc(N4CCOCC4)s3)CC2)cc1
→ 0.2, 0.9, 2.7, 1.5, 5.1, 1.3%
